Source: PubChem (several laboratories)
Sa ugtP lethal – kills S. aureus RN4220 lacking UgtP; S. aureus RN4220 ugtP deletion, OD600 growth, 16 h; some inactives read as strong as hits; growth inhibition, % (test concentration not listed); AID 1259309; 0.54% of 330,000 active;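 active = z-score under -3 and OD600 up to 0.15 on both plates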;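 also: plate controls were untreated wells for no effect and antibiotic for full effect; wells of about 80 µL received 100 nL stock; the first replicate is given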
Sa RN4220 lethal – S. aureus RN4220 growth inhibition | OD600, 16 h | inhibition, % (no concentration beside the values) | 0.33% of 330,000 active;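 active = z-score of -3 or lower and OD600 up to 0.18 on both plates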;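 also: plate controls were untreated cells for no effect and reference antibiotic for full effect; stock transfer was 100 nL into about 80 µL; one replicate is shown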
BJeLR viability – kills HRASV12-expressing BJeLR cells; BJeLR (HRASV12) viability, CellTiter-Glo ATP luminescence, 48 h; reference of the scale not given here; inhibition, % (concentration not given with the values); 0.17% of 300,000 active; AID 1554;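 active = replicate mean above 50%; inconclusive = above 50% but judged a plate artefact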;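 also: 50 nL library stock added to about 25 µL; numbers are from one replicate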
PrP 5UTR inh – suppresses PrP 5' UTR mRNA reporter expression; 0.35% of 340,000 active; AID 488862; cell-based PrP 5' UTR mRNA reporter, plate reader; inhibition, % (no concentration beside the values);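 active = every replicate at 50% or more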;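 also: 0 = median of the neutral control wells; tested in H4 reporter cells; numbers are from one replicate; inactives centre near -14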
Bead autofluor – counter-screen for toxin protease inhibitors: compound fluorescence; compound autofluorescence counterscreen, microsphere flow cytometry; hits give high values; fluorescence intensity (test concentration not listed); 3.1% of 360,000 active; AID 624483;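 active = at least 3 SD above the mean of all compounds, about 16000 in these data; inconclusive = too few beads counted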;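 also: 100 nL of 1 mM stock went into each well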
Mtb hypoxia rep – inhibitors of hypoxia-regulated fluorescent reporter in Mycobacterium tuberculosis; fluorescence inhibition, % (test concentration not listed); M. tuberculosis hypoxia-regulated fluorescent reporter, fluorescence; 0.1% of 300,000 active;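 active = 35 to 45% if threefold the growth effect, above 45% if 1.5-fold the growth effect; inactive = the rest, general growth blockers included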;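 also: wells of about 50 µL received 100 nL stock; 0% = vehicle wells and 100% = reference inhibitor wells; whole bacteria with a GFP reporter of the hypoxia response; strong numbers were not always called active; many hits fall short of the cut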
Mtb hypoxia rep growth – recorded beside Mtb hypoxia rep, whose call it bears; growth inhibition, %; measured here: M. tuberculosis growth (absorbance);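 0% = vehicle and 100% = reference antibiotic; read after six days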
* marks the source's active call; other numbers are inactive results; ? = inconclusive; · = not tested or not shown; & = joins results of further samples.

SMILES	Sa ugtP lethal	Sa RN4220 lethal	BJeLR viability	PrP 5UTR inh	Bead autofluor	Mtb hypoxia rep	Mtb hypoxia rep growth
C=CCSc1nnc(Cn2c(=O)sc3ccccc32)n1C	-3	-0.4	-2	-3	5485	·	·
Cc1nc2nc(-c3cccnc3)[nH]n2c(=O)c1Cc1ccccc1	-5	2.2	3	-12	20663*	21	25
Cc1cc(C)c([N+](=O)[O-])cc1-c1ccc(/C=N/NC(=O)c2nonc2N)o1	·	·	12	-7	2832	·	·
CN(C)C(CNC(=O)NC1CCCCC1)c1cccnc1 (configuration not stated)	-3	-1.8	-11	-30	3628	8	3
COc1ccccc1C(=O)N/C(=C\c1ccccc1)C(=O)NC(C)C(=O)O (configuration not stated)	·	·	1	-17	3745	·	·
COc1ccc2c(c1OC)C(=O)OC2Nc1ccccc1S(=O)(=O)C(F)F (configuration not stated)	1	1.3	9	-23	11990	0	-3
O=C(CCC1CCCN(C(=O)CCC(F)(F)F)C1)NCc1ccc(F)c(F)c1 (configuration not stated)	-2	5.0	-3	-14	4146	17	19
CCc1nn(CC(=O)NCCCc2ccccc2)c(=O)c2cc3cc(F)ccc3n12	9	3.7	5	-20	8175	4	1
Cc1cccc(NC(=O)C2(c3ccccc3)CCOCC2)c1	10	6.0	0	-20	4470	7	-4
CCOC(=O)C1(Cc2cccc(Cl)c2)CCCN(CCO)C1 (configuration not stated)	-1	6.6	1	-21	4778	6	-3
CCNC(=S)NN=Cc1cc(C)n(-c2ccc(Cl)cc2)c1C	10	10	·	·	·	2	3
CCc1cc(C(=O)NCC(c2ccco2)N2CCCCC2)sc1C (configuration not stated)	-1	1.7	·	-6	3925	10	6

Next section (4 carried over from the part before).
SMILES	Sa ugtP lethal	Sa RN4220 lethal	BJeLR viability	PrP 5UTR inh	Bead autofluor	Mtb hypoxia rep	Mtb hypoxia rep growth
Cc1cccc(NC(=O)C2(c3ccccc3)CCOCC2)c1	10	6.0	0	-20	4470	7	-4
CCOC(=O)C1(Cc2cccc(Cl)c2)CCCN(CCO)C1 (configuration not stated)	-1	6.6	1	-21	4778	6	-3
CCNC(=S)NN=Cc1cc(C)n(-c2ccc(Cl)cc2)c1C	10	10	·	·	·	2	3
CCc1cc(C(=O)NCC(c2ccco2)N2CCCCC2)sc1C (configuration not stated)	-1	1.7	·	-6	3925	10	6
CC(C)CC(NC(N)=O)C(=O)OCC(=O)Nc1ccc(SC(F)F)cc1 (configuration not stated)	8	35	3	6	3961	18	12
CCCCn1c(N)c(N(CCOC)C(=O)c2cccc(S(=O)(=O)N(C)c3ccc(C)cc3)c2)c(=O)[nH]c1=O	-2	2.4	-2	-19	5057	1	-4
CC1CCCN(C2(O)C(=O)Nc3ccc(Cl)cc32)C1 (configuration not stated)	2	6.6	9	-1	3284	15	7
CCN(CC)C(=O)C(=O)c1ccn(-c2c(C)csc2C(=O)OC)c1	1	3.7	4	-15	1979	14	11
Cc1ccccc1-c1nnc(-c2ccc(Cl)cc2)o1	2	13	4	-108	8010	23	12
C=CCn1c(SCC(=O)Nc2ccc(Br)cc2)nc(O)c(CC)c1=O	9	4.5	1	-15	4293	7	-5
CC1(c2ccccc2)NC(=O)N(CC(=O)N(CC(=O)Nc2ccccc2C(F)(F)F)Cc2ccco2)C1=O (configuration not stated)	1	6.8	·	-17	?	5	2
O=C(NCc1ccccc1)c1csc2c1CCCCC2	7	-6.6	-5	-36	4286	·	·
CS(=O)(=O)c1ccc(Cl)c(NC(=O)COC(=O)CCN=C2NS(=O)(=O)c3ccccc32)c1	3	-1.9	-6	-16	5034	-1	8
CCOC(=O)N1CCN(C(=O)c2ccc(N3C(=O)c4ccccc4C3=O)cc2)CC1	-6	4.0	8	-4	2174	·	·
O=C(Nc1cc(S(=O)(=O)N2CCOCC2)ccc1N1CCOCC1)c1c(F)cccc1Cl	5	0.9	·	-1	2828	3	6
CC(OC(=O)c1ccc(Cl)nc1)C(=O)NC(C)(C)C (configuration not stated)	11	3.6	-3	-18	2744	9	1
OCC1CCCN(c2ncnc3scc(-c4ccccc4)c23)C1 (configuration not stated)	12	9.0	16	-3	4651	2	2
CCOC(=O)N1CCC(Nc2c(NCCCN(CC)c3cccc(C)c3)c(=O)c2=O)CC1	10	2.5	5	-2	4640	6	11
COc1ccc(CC(=O)OCC(=O)c2ccc[nH]2)cc1	3	3.2	·	-23	4153	-9	-2
CCCCOc1cccc(/C=N/NC(=O)c2csc(C)c2C)c1	·	·	-10	-18	4178	·	·
O=C(O)CCCCCCNC(=O)c1cncc(O)c1	1	2.0	11	-6	4507	-6	-11
C=C[C@@]1(C)CC(=O)[C@]2(O)[C@@]3(C)[C@@H](O)CCC(C)(C)[C@@H]3[C@H](OC(C)=O)[C@H](O)[C@@]2(C)O1	-8	5.9	-1	-31	4971	·	·
COc1ccc(Cn2c(=O)[nH]c3cc(C(=O)N4CCN(c5ccc(C(C)=O)cc5)CC4)ccc3c2=O)cc1	7	3.9	1	-12	5399	-4	-7
Cc1cc(C)cc(OCC(=O)N(Cc2ccccc2)C2CCS(=O)(=O)C2)c1 (configuration not stated)	-1	0.6	-3	-49	5459	12	2
COc1ccc(C(C)=O)cc1COc1ccc(Cl)cc1Cl	6	4.0	-5	-3	4396	-6	2
CCC(C)NC(=O)c1cc(C)no1 (configuration not stated)	6	1.5	2	-28	4267	5	-1
CCc1nc(-c2ccc(-c3ccc(OC)cc3)nc2OC)no1	-2	11	1	-54	4716	5	17
COc1ccc(-c2ccc(SCC(=O)NC3CCCC3)nn2)cc1OC	1	-3.7	-4	-16	5737	-9	5
COc1ccc(N2C(=O)/C(=C/c3ccc(OC)c(OC)c3)C(=O)NC2=S)cc1	13	2.7	7	-18	3366	14	8
Cc1cccc(CC2CC(=O)N(c3ccc([N+](=O)[O-])cc3)C2=O)c1 (configuration not stated)	7	-2.1	13	-35	3442	20	9
O=C(O)CNC(=O)C(CS)Cc1ccccc1 (configuration not stated)	3	9.0	·	-10	4585	8	-1
CCCOc1ccc(NC(=O)CC2C(=O)N(C)C(=S)N2Cc2ccc3c(c2)OCO3)cc1 (configuration not stated)	2	-1.9	17	5	2433	-9	3
O=S1(=O)C=CC(c2ccccc2)C1 (configuration not stated)	5	1.2	-2	-13	3705	5	5
CCN1CCc2c(OCc3ccccc3)cccc2C1=O	6	10	-5	-8	5066	5	5
CCn1cc(C(=O)N[C@@H](CCSC)C(=O)NC(C)(C)CO)c(=O)c2cc3c(cc21)OCO3	3	1.1	-9	-9	3758	-13	-4
CCC(C(=O)NCCc1c[nH]c2cc(OC)ccc12)c1ccccc1 (configuration not stated)	19	-2.7	-1	-20	3809	2	0
O=C(O)c1cn(C2CCCCC2)c2ccccc2c1=O	17	-8.8	-9	-22	4519	3	4
COC(=O)[C@]12OC[C@]34C([C@@H](O)[C@@H]1O)[C@]1(C)CC(=O)C(O)=C(C)[C@@H]1C[C@H]3OC(=O)[C@H](O)[C@@H]24 (some centres not stated)	·	·	-2	0	2996	·	·
CCCOc1ccccc1NC(=O)c1ccc(N)cc1	-5	1.9	4	-20	8077	10	11
Nc1nnnn1N=Cc1ccc(F)cc1	-2	1.1	·	·	·	-10	-3
Cc1ccc(C2N3CC4([N+](=O)[O-])CN2CC([N+](=O)[O-])(C3)C4(C)C)cc1 (configuration not stated)	5	7.3	-5	-22	2164	11	2
COc1cc(Cl)ccc1NC(=S)N(CCN(C)C)C(C)c1ccncc1 (configuration not stated)	3	-0.2	19	-14	5221	-3	7
COC(=O)CSc1nc(-c2ccccc2)cc(-c2ccco2)c1C#N	-9	13	-4	-26	4397	18	13
COc1cc(C(=O)NN=Cc2sc(N3CCOCC3)nc2-c2ccccc2)cc(OC)c1OC	7	-5.8	·	·	·	6	27
O=c1cc(O)c(-c2ccccc2)c(Cl)[nH]1	0	1.3	-2	-17	2757	·	·
O=C(NCc1ccco1)c1ccc2c(=O)n(CCC3=CCCCC3)c(=O)[nH]c2c1	-8	5.0	-6	-9	3175	-2	15
CCOC(=O)Nc1ccc2c(c1)N(C(=O)N1CCN(C)CC1)c1ccccc1CC2	-2	3.3	0	-9	3637	-14	-6
O=C(NC1CCN(C(=O)Nc2ccc(F)cc2)CC1)c1ccccc1F	6	1.1	6	0	3735	8	4
CC(=O)Nc1cccc(/C(C)=N/Nc2nc3ccccc3s2)c1	·	·	0	-70	7152	·	·
Cc1ccnc(NC(=O)CCC(=O)N(CC(=O)NCCc2ccccc2)Cc2ccco2)c1	5	2.1	·	-12	2764	·	·
Cc1cc(NC(=O)Cn2nnc(-c3ccccc3NC(=O)c3ccccc3F)n2)no1	4	-1.5	2	-30	3525	10	8
Cc1ccc(S(=O)(=O)NCCC(=O)NCCCSc2ccccc2)cc1	0	-0.5	·	-2	3162	-4	-5

Whole records from above. Values in the order: Sa ugtP lethal, Sa RN4220 lethal, BJeLR viability, PrP 5UTR inh, Bead autofluor, Mtb hypoxia rep, Mtb hypoxia rep growth
COc1cc(Cl)ccc1NC(=S)N(CCN(C)C)C(C)c1ccncc1 (configuration not stated) is entered as 3, -0.2, 19, -14, 5221, -3, 7
Cc1cc(C)cc(OCC(=O)N(Cc2ccccc2)C2CCS(=O)(=O)C2)c1 (configuration not stated) is entered as -1, 0.6, -3, -49, 5459, 12, 2

(list continues)
SMILES	Sa ugtP lethal	Sa RN4220 lethal	BJeLR viability	PrP 5UTR inh	Bead autofluor	Mtb hypoxia rep	Mtb hypoxia rep growth
Cc1ccc(/C=N/NC(=O)C(NC(=O)c2ccccc2)c2n[nH]c(=O)c3ccccc23)cc1 (configuration not stated)	·	·	-10	-25	?	·	·
O=C(O)CCc1ccc(-c2ccc(Br)cc2)n1-c1cccc(O)c1	85*	35	5	-7	3774	-9	3
N#Cc1c(N)nc(N)nc1Nc1ccc(Br)cc1	·	·	-8	-7	3957	·	·
Cc1cc(Oc2ccccc2)nc(OCC#N)n1	7	1.9	-5	-17	7592	13	5
CCOC(=O)Nc1sc(NS(=O)(=O)c2ccccc2)nc1C	8	0.9	-3	-21	8792	7	1
COc1ccc(C(c2c(O)nc(SC)n(C)c2=O)c2c(O)nc(SC)n(C)c2=O)cc1O	7	4.0	8	0	2152	6	7
CCCCCn1c(N(C)Cc2ccccc2)nc2c1c(=O)[nH]c(=O)n2C	7	-0.5	-1	0	5292	9	8
O=[N+]([O-])c1cc(Br)c2nsnc2c1N1CCOCC1	13	4.6	4	-13	4163	-4	-4
COc1ccccc1C(=O)NCCC(=O)N1CCN(S(=O)(=O)c2cccc(Cl)c2)CC1	-1	3.7	·	·	?	12	10
CC(C)(C)OC(=O)CC1CC=CCC(CC(=O)NC(CO)Cc2ccccc2)C(=O)NC(C(C)(C)C)COC1=O (configuration not stated)	6&-5	6.9&1.4	·	·	·	3&0	7&5
Cc1ccc(-c2nc(NC(=O)c3nn(C)cc3[N+](=O)[O-])sc2C)cc1C	-1	3.2	1	·	9921	-2	-3
CC1CN=C(NCc2ccncc2)S1 (configuration not stated)	-1	1.6	3	-17	3522	6	10
CCCCNc1nc2ccccc2n1CC(=O)N1CCc2ccccc2C1	-8	2.6	1	-32	5760	0	-9
O=C1c2ccccc2NC(c2ccccn2)N1c1ccc(Cl)cc1 (configuration not stated)	6	-8.7	-1	-20	4176	9	11
NS(=O)(=O)c1ccc(CCNCc2cc(Br)ccc2OCc2ccccc2F)cc1	-4	1.4	11	-8	4990	-5	-5
CC(=O)CSc1ncnc2c1cnn2-c1ccccc1	15	6.3	0	-64	2396	-1	0
CCCCNC(=S)NNC(=O)c1c(C)nc2ccccn12	0	0.4	2	-8	3279	1	17
C/C(C=NN1CCN(c2ccc(C)cc2)CC1)=C\c1ccccc1	3	1.1	·	·	·	8	3
CC(C)(C)NC(=O)CN(C(=O)CS(=O)CC(=O)Nc1ccc(F)cc1)c1ccc(Cl)cc1 (configuration not stated)	7	-2.3	6	-9	20135*	2	10
CCCCn1c(N)c(N(CC(C)C)C(=O)c2c(CC)noc2C)c(=O)[nH]c1=O	2	5.7	1	-11	·	9	0
CS(=O)(=O)Nc1ccc(C(=O)N2CCN(c3ccccc3F)CC2)cc1	6	6.2	3	-40	10992	11	11
Cc1ccc(N=C2NC(=O)/C(=C/c3cccn3C)S2)cc1C	-24	-0.2	-8	·	6172	6	9
COc1cccc2sc(NNC(=O)c3nc4ccccc4s3)nc12	·	·	-8	-12	5506	·	·

Rows are unselected. About 4% of those tested had a hit in this group.
